From PubChem
miR-21 FLuc – qHTS Assay for Modulators of miRNAs and/orActivators of miR-21. HeLa miR-21 FLuc reporter, luciferase, 48 h. Potency, µM (doses to about 38.3 µM), for inactives: at the top dose reporter change, positive = more light. 340,000 tested, under 10 active. AID 2288, 2010; active = well fitted rising curve with a large enough effect; inconclusive = small, poorly fitted or top-dose-only effect; inactive = no such curve, though single readings can be large or run the other way;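 also: % of control where 0% means no effect; miR-21 action dims this reporter so a rising signal means less miR-21 action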
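Luminescence from a firefly luciferase reporter carrying a miR-21 binding site downstream, stably expressed under a CMV promoter in HeLa cells that make miR-21 endogenously, reports miRNA modulation after 48 h compound exposure up to approximately 40uM final.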
Rango-impB inh – qHTS Assay for Inhibitors of Rango (Ran-regulated importin-beta cargo) - Importin beta complex formation; Rango CFP/YFP FRET sensor + importin beta, 45 min; 340,000 compounds, 0.031% hits; Potency, µM (highest dose often 92.2 µM), without a hit: top-dose inhibition of complex formation; active = rising FRET ratio curve, often small or poorly fitted; inconclusive = mostly compound fluorescence or quenching in the first reads; inactive = flat curves in all reads;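 also: potency is read from the fitted curve at half-maximal effect; 0% = DMSO wells and 100% = buffer wells lacking importin beta; nearly all actives have a fitted effect of over 15% in size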
Target sequence (Q14974 whole entry, looked up): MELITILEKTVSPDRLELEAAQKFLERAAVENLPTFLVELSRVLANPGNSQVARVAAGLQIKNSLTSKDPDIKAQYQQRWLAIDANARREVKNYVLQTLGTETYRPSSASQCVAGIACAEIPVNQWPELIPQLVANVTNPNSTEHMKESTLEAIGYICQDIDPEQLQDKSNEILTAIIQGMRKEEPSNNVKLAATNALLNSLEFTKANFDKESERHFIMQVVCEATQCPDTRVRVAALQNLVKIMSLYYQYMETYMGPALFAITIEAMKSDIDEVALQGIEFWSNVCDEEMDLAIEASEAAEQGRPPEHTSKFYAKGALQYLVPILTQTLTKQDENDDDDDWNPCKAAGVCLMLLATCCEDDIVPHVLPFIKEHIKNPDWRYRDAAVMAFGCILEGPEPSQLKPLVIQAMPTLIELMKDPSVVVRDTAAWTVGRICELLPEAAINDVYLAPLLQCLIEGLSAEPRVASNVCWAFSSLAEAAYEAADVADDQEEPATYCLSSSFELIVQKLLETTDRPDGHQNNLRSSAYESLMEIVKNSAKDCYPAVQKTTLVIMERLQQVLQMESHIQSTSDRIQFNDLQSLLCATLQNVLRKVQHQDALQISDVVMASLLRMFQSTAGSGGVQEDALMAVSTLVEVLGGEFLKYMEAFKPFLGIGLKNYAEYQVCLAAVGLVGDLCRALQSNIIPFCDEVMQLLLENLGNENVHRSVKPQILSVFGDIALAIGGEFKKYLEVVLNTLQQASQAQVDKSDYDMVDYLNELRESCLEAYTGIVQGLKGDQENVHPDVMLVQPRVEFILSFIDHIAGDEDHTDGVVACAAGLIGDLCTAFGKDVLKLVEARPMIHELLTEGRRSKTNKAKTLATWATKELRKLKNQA
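FRET biosensor Rango (snurportin 1 IBB between N-terminal EYFP and C-terminal Cerulean), 50 nM in PBS/1 mM DTT/0.02% Tween-20/0.1% BSA, preincubated 5 min RT with compound; 0.125 microM importin beta added, 45 min RT, CFP/YFP FRET ratio read.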
Rango dissoc inh – qHTS Assay for Inhibitors of RanGTP induced Rango (Ran-regulated importin-beta cargo) - Importin beta complex dissociation | Snurportin-1 (Homo sapiens) + GTP-binding nuclear protein Ran (Homo sapiens) + Importin … | Biochemical FRET Rango-importin beta, RanGTP-induced dissociation | Potency, µM (series often up to 46.1 µM), without a hit: top-dose activity change, negative = inhibition | 340,000 compounds, 0.071% hits; active means falling FRET ratio curve, often poorly fitted, with flat reads before Ran was added; inconclusive means other falling curves, or compound fluorescence or quenching; inactive means flat or rising ratio curve;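 also: potency is read from the fitted curve at half-maximal effect; % of control where 0% means no effect; nearly all actives have a fitted effect of over 45% in size; -100% = wells without RanGTP and RCC1; the record marks most hits as doubtful in a second field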
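Two FRET readings bracket the reaction: one 5 min after compound meets Rango–importin beta, another 45 min after RanGTP-RCC1 (0.6 uM Ran, 0.2 uM RCC1, 2 mM GTP) is added. Only the second defines inhibition.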
GLA inh pH 4.5 – qHTS Assay for Inhibitors of Human alpha-Galactosidase at pH 4.5. activity change, negative = inhibition, % at 105 µM. 230,000 tested, under 10 active. Alpha-galactosidase A (Homo sapiens), P06280. purified enzyme, 4-MU-alpha-Gal fluorescence, pH 4.5; inconclusive = small, poorly fitted or top-dose-only inhibition, or a rising curve; inactive = flat fitted curve, though single readings scatter; no compound was filed as active;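 also: 0% = full activity with enzyme and -100% = basal without enzyme; dose as in the result columns while the protocol names 77 µM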
* hit, by the source's call; u = inconclusive; x = no result given; & = joins results of further samples. Not all compounds are listed. The share of hits here may be higher or lower than overall.

nr | molecule | miR-21 FLuc | Rango-impB inh | GLA inh pH 4.5 | Rango dissoc inh
1 | CCOc1ccc(/C=C(\C#N)C(=O)Nc2cccnc2)cc1 | -1% | u | -2 | -11%
2 | CC(C)C(=O)Nc1ccccc1N1CCN(C(=O)c2ccccc2)CC1 | 0% | -0.2% | -9 | -3%
3 | CC(=O)N1CCN(CC(C)(C)NS(=O)(=O)c2ccccc2)CC1 | x | -1.0% | x | -1%
4 | COc1ccc(NC(=O)c2cccs2)cc1OC | -26% | -5.8% | -6 | 8%
5 | CCS(=O)(=O)c1ccc2oc(SCC(=O)N3CCCCC3)nc2c1 | 1% | -1.3% | 0 | -4%
6 | Cc1ccc(C)c(OCC(=O)N/N=C/c2ccsc2)c1 | -5% | 1.9% | -3 | -2%
7 | Cc1ccccc1CNc1nnnn1C | -2% | -0.5% | -2 | -10%
8 | Nc1nncn1C(=O)CCCOc1ccc(Cl)cc1Cl | -8% | -2.8% | -11 | 3%
9 | Cc1ccc(NCC(=O)N/N=C/c2cccc(Oc3ccccc3)c2)cc1 | -11% | 5.9% | -10 | -1%
10 | O=C(COc1ccc(Br)cc1Br)NC(=O)NC1CCCC1 | -69% | u | -7 | 1%
11 | CN(C)CCOc1ccccc1-c1ccccc1 | -2% | 0.9% | -5 | -6%
12 | O=c1cc(-c2ccccc2Cl)oc2cc(O)cc(O)c12 | -64% | 2.7% | 7 | -9%
13 | O=[N+]([O-])c1cccc(S(=O)(=O)Nc2cccc(-c3ccc(N4CCOCC4)nn3)c2)c1 | x | 0.7% | x | 15%
14 | CCN(CC)S(=O)(=O)c1ccc(NS(=O)(=O)c2ccc(F)cc2)cc1 | -5% | -2.2% | -3 | -4%
15 | CN(C)N1C(N)=C(C#N)C(c2ccc(Br)cc2)C2=C1CCCC2=O (configuration not stated) | 1% | 0.2% | x | -13%
16 | c1ccc(-c2nnc(-c3ccccc3)nn2)cc1 | -67% | -0.1% | -1 | -19%
17 | CCOc1ccccc1NC(=O)Nc1cc(S(=O)(=O)N(C)C)ccc1C | 0% | -2.2% | -3 | -4%
18 | C[C@@H]1CC[C@]2(O[C@@H](CCO)C[C@H](O)[C@H]2O)O1 | -9% | -1.0% | 7 | 10%
19 | Cc1nn(-c2ccc(Cl)c(Cl)c2)c(=O)c2ccccc12 | -12% | 0.1% | 8 | 25%
20 | O=C(CSc1nnc(Cn2nnc3ccccc32)o1)N(Cc1ccc(F)cc1)c1ccccc1 | 19% | 5.2% | -18 | 3%
21 | Cc1cc(Nc2nc(Cl)c(Cl)cc2Cl)n(-c2ccccc2)n1 | 14% | 0.9% | 2 | 13%
22 | O=C(CCN1C(=O)C2C3C=CC(C3)C2C1=O)Nc1ccccc1F (configuration not stated) | -9% | -1.0% | 8 | -5%
23 | O=C(Cn1c(=O)[nH]c2ccccc2c1=O)N1CCN(c2cccc(Cl)c2)CC1 | -3% | u | 6 | -6%
24 | CCCNC(=O)Cn1c(=O)/c(=C/c2ccc(-c3ccc([N+](=O)[O-])cc3)o2)s/c1=C\C(=O)C(C)(C)C | x | u | x | u
25 | CCN(CC)S(=O)(=O)c1ccc2c(c1)c(=O)c(C(=O)NCCc1ccccc1)cn2C | 0%&-7% | u | x | -8%
26 | Cc1cc(N)n(-c2ccc(S(=O)(=O)N3CCCC3)cc2[N+](=O)[O-])n1 | -3% | -3.8% | 8 | 18%
27 | CN(Cc1ccccc1)C(=O)c1ccc2c(c1)S(=O)(=O)N=C1CCCCCN12 | x | -0.5% | x | -6%
28 | O=C(O)CCC(=O)OCc1c(-c2ccccc2)ncc2ccccc12 | x | -3.7% | x | -11%
29 | COc1cccc(-n2nnc3c(=O)n(Cc4ccccc4F)cnc32)c1 | -28% | 4.6% | -5 | -1%
30 | COC(=O)C1CCN(C(=O)COC(=O)c2cccc(NS(=O)(=O)c3ccccc3)c2)CC1 | x | 0.6% | x | 10%
31 | COc1ccc(-c2ccc3c(c2)c(-c2cccs2)c(-c2cc(OC)cc(OC)c2)n3C)cc1 | x | 0.0% | x | 8%
32 | Cc1ccc2cc(CN(CCN(C)C)C(=S)Nc3ccccc3)c(=O)[nH]c2c1C | 0% | -4.8% | 4 | -15%
33 | CN(C)S(=O)(=O)c1ccc(C(=O)OCCn2cnc3c2c(=O)n(C)c(=O)n3C)cc1 | 7% | -0.2% | 0 | -4%
34 | O=C(COc1cccc(C(F)(F)F)c1)NNC(=O)Cn1c(=O)cnc2ccccc21 | x | -1.2% | x | -12%
35 | O=C(CCNC(=O)Cn1ccc2ccccc2c1=O)NCCc1ccccc1Cl | 0% | 1.2% | 7 | 4%
36 | N#C/C(=C/c1cn[nH]c1-c1cccc(Br)c1)C(=O)O | -2% | 0.7% | 2 | -10%
37 | COc1ccccc1N1CCN(S(=O)(=O)c2ccccc2)CC1 | -11% | -5.2% | -3 | 2%
38 | COc1ccccc1C1NC(=O)CS1 (configuration not stated) | 1% | -0.4% | 2 | 7%
39 | CCN(CC)c1c([N+](=O)[O-])ncn1C | -1% | u | -2 | -5%
40 | COc1ccc(-c2nc3cc([N+](=O)[O-])ccc3o2)cc1 | -65% | -0.3% | 1 | 17%
41 | O=C(Nc1nnc(C2CC2)s1)C1CCCO1 (configuration not stated) | -17% | -2.7% | 1 | -6%
42 | CC(=O)N1CCN(C(=O)c2cc(S(=O)(=O)N3CCN(c4ccccc4)CC3)ccc2Cl)CC1 | x | -0.2% | x | 4%
43 | COc1cc2c(cc1OC)C(C)N(C(=O)CCN1C(=O)C3C4C=CC(C4)C3C1=O)CC2 (configuration not stated) | -6% | 1.5% | -9 | 8%
44 | CC12CCC(C(=O)NCCCN3CCOCC3)(OC1=O)C2(C)C (configuration not stated) | 2% | -0.9% | 7 | -3%
45 | CCOC(=O)N1CCC(N2CC34C=CC(O3)C(C(=O)Nc3ccc(F)cc3)C4C2=O)CC1 (configuration not stated) | -1% | 1.6% | -4 | 20%
46 | CCN(CC)c1ccc(/C=N/N2CCN(Cc3ccccc3)CC2)c(O)c1 | -8% | 1.1% | -1 | 1%
47 | COc1ccc(/C=C2\SC(=S)N(CC(=O)N(C)C3CCS(=O)(=O)C3)C2=O)cc1 (configuration not stated) | 1% | 0.7% | x | 0%
48 | CC(C)c1ccc(NS(=O)(=O)c2ccc3c(c2)NC(=O)CO3)cc1 | 12% | -3.1% | x | 28%
49 | CC(C)(C)SCCNS(=O)(=O)c1ccc(Cl)cc1 | -5% | 2.2% | -16 | 2%
50 | COc1ccc(CC(=O)N(c2ccccc2)c2nc(C)cs2)cc1 | -8% | 0.1% | -2 | -6%
51 | N#C/C(=C/c1ccc(OCc2ccccc2)cc1)C(=O)NC1CCCCC1 | -8% | 5.3% | 3 | 9%
52 | COc1ccc(N2CC(C(=O)N/N=C/c3ccc([N+](=O)[O-])cc3)CC2=O)cc1 (configuration not stated) | 0% | -0.2% | -12 | 20%
53 | CCNc1ccc(C(=O)OCC(=O)Nc2cc(C)on2)cc1[N+](=O)[O-] | x | u | x | -4%
54 | O=C(Cn1nnc(-c2cccs2)n1)N1CCOCC1 | -9% | 6.4% | -5 | -10%
55 | O=C(OC1Cn2c(=O)ccc(=O)n2C1)c1ccc([N+](=O)[O-])cc1 | -8% | u | 4 | -5%
56 | COc1ccc(C(=O)N2CCC(C(=O)NC3CC3)CC2)cc1 | 1% | 5.9% | x | -1%
57 | COc1cc(C(=O)Nc2ccc(N3CCOCC3)cc2)ccc1OCc1c(C)noc1C | -7% | -2.5% | 1 | 18%
58 | Clc1cc(Br)ccc1OCCOCCOc1cccc2cccnc12 | -15% | -1.3% | 6 | 48%
59 | CCn1cc(C(=O)N2CC(C)CC(C)C2)c(=O)c2cc(S(=O)(=O)N3CCCC3)ccc21 (configuration not stated) | 0% | -0.2% | x | 3%
60 | Cn1c(C(=O)N2CCCC(Nc3ccc(F)cc3)C2)cc2ccccc21 (configuration not stated) | -1% | -2.0% | x | 0%

Record cards, as listed above. Order of screens: miR-21 FLuc | Rango-impB inh | GLA inh pH 4.5 | Rango dissoc inh
CC(=O)N1CCN(C(=O)c2cc(S(=O)(=O)N3CCN(c4ccccc4)CC3)ccc2Cl)CC1 in the list: x | -0.2% | x | 4%
O=C(OC1Cn2c(=O)ccc(=O)n2C1)c1ccc([N+](=O)[O-])cc1 in the list: -8% | u | 4 | -5%
CCN(CC)c1c([N+](=O)[O-])ncn1C in the list: -1% | u | -2 | -5%

The list continues:
nr | molecule | miR-21 FLuc | Rango-impB inh | GLA inh pH 4.5 | Rango dissoc inh
61 | Clc1cc(Br)ccc1OCCCNCc1ccccc1 | -10% | -0.6% | -18 | -4%
62 | COCCNc1nc(-n2nc(C)cc2C)nc2sc3c(c12)CCCC3 | 14% | 1.1% | 25 | 1%
63 | CCOC(=O)C1(NC(=O)CN2C(=O)c3ccccc3C2=O)CCCC1 | x | 2.3% | x | 4%
64 | N#Cc1ccccc1CN1C(=O)NC(Cc2c[nH]c3ccccc23)C1=O (configuration not stated) | 1% | u | -2 | -13%
65 | COCc1nnc(N)s1 | -1% | 0.3% | -1 | 13%
66 | CCN1C(=O)N[C@@H](c2cccc(C(F)(F)F)c2)[C@H](C(=O)OC)[C@H]1C | x | 1.0% | -7 | 1%
67 | COc1ccc(CCNC(=O)CSc2ccc(-c3ccccc3)nn2)cc1OC | -2% | 0.5% | -2 | 11%
68 | Cc1ccnc(Nc2nc(-c3ccc(O)cc3O)cs2)c1 | -32% | 5.2% | x | -1%
69 | O=C(NCc1ccccc1)C(c1ccc(O)cc1)N(C(=O)c1cnccn1)c1ccccc1 (configuration not stated) | 15% | 0.5% | x | -4%
70 | COc1cc(CCC(=O)OCC(=O)N2CCc3ccccc32)cc(OC)c1OC | 4% | u | x | 1%
71 | O=C(Nc1cccc(O)c1)c1ccc(S(=O)(=O)N2CCCCCC2)cc1 | -31% | 0.0% | x | 1%
72 | O=C(Nc1ccc(Cl)c(C(F)(F)F)c1)c1ccco1 | -18% | 0.5% | 3 | 5%
73 | COc1ccc(S(=O)(=O)N2CCOC2CNC(=O)C(=O)NCc2ccccc2Cl)cc1 (configuration not stated) | 0% | 4.4% | x | 7%
74 | CCc1ccc(C(C(=O)NCc2ccc(F)cc2)N(C(=O)c2csnn2)C2CC2)cc1 (configuration not stated) | 8% | u | x | -5%
75 | Cc1oc(C(C)(C)C)cc1C(=O)Nc1cccc(/C=C/C(=O)O)c1 | -28% | 0.2% | -5 | -10%
76 | O=C(NCc1ccncc1)c1cccc(S(=O)(=O)NCc2ccccc2)c1 | -2% | 0.9% | x | -3%
77 | O=C1NC(=O)C2(CCC(C3CCCCC3)CC2)N1 (configuration not stated) | x | u | x | -13%
78 | COc1ccc(NC(=O)CN(C)C(=O)C2=COCCO2)cc1 | x | 0.7% | x | 3%
79 | O=C(NCCc1nc2ccccc2[nH]1)c1ccco1 | -4% | 6.2% | 8 | 2%
80 | Cc1c(C(=O)NCCSCc2ccccc2Cl)cccc1[N+](=O)[O-] | -5% | 4.0% | 2 | 9%
81 | CCOc1ccc(C2C(C(=O)c3ccc(C)o3)=C(O)C(=O)N2CCN2CCOCC2)cc1OC (configuration not stated) | -9% | -1.2% | 0 | -6%
82 | O=C1CCCN2N=C(SCC(=O)Nc3cccc(Cl)c3)SC2=N1 | 13% | 0.0% | x | 5%
83 | CCC(=O)NCC(c1cccs1)N1CCOCC1 (configuration not stated) | 1% | u | 1 | 0%
84 | COc1ccc(OC)c(S(=O)(=O)N2CCC(C(=O)NCCc3ccc(OC)c(OC)c3)CC2)c1 | 0% | -3.8% | -10 | -20%
85 | CN(Cc1cccs1)C(=O)C1CC(=O)N(Cc2ccccc2)C1 (configuration not stated) | x | -3.8% | x | 3%
86 | O=C(NCC1CCCO1)C1CCCN(S(=O)(=O)c2cc(Cl)ccc2Cl)C1 (configuration not stated) | 4% | -1.7% | x | -1%
87 | O=C1CC(/C=C/c2ccco2)=Nc2ccccc2N1 | -1% | u | -2 | -24%
